PMP22 txn: modulators of PMP22 gene transcription in S16 Schwann cells; Potency, µM (top dose mostly 57.5 µM), for the others: top-dose activity change, negative = inhibition, hits mostly inhibitors; 2% of 43,000 active; S16 Pmp22-F2sN Schwann cells (luciferase reporters placed in the Pmp22 gene), FLuc/NLuc coincidence luminescence, 24 h; AID 1508649; active = clear falling dose curves in both reporters; inconclusive = both reporters move, but less clearly or upward; inactive = either reporter flat; the % is the NLuc reporter signal; note: % is set by controls: 0 for no effect and ±100 for the full control effect; some results filed as inactive show a strong effect at the top dose
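S16(c9) Schwann cells with FLuc/NLuc coincidence reporter in the Pmp22 3' UTR; compounds pin-transferred, 24 h at 37C. Dual-luciferase read: FLuc first, then NLuc after Stop&Glo, each 10 min at room temperature.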
HTT promoter inh: inhibitors of huntingtin promoter activity | HEK293 HTT promoter firefly luciferase reporter (activity 0% = vehicle and -100% = no light), 24 h | Potency, µM (highest dose often 57.5 µM), without a hit: top-dose activity change, negative = inhibition, most hits filed as inhibitors | 0.93% of 48,000 active | AID 1508623; active = well fitted inhibition curve with a large enough effect; inconclusive = small, poorly fitted or top-dose-only effect; inactive = no such curve, though single readings can be large or run the other way; note: nearly all actives have a fitted effect of over 50% in size
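Firefly luciferase readout (Dual-Glo, 10 min RT) after 24 h, 37 °C compound exposure (final up to 57.5 uM) of HEK293 reporter cells cultured 24 h beforehand; PTC124 at 50 uM final as control inhibitor; activity scaled vehicle 0%, zero RLU -100%.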
The depositor's hits bear a star; ? = inconclusive; . = no result given; & = joins results of further samples; [ ] = remark or other dose. Potency is the fitted concentration of half-maximal effect.

Start of the data: the first seven records, ahead of the listing:
SMILES	PMP22 txn	HTT promoter inh
Cc1cc2[nH]c(=O)c(=O)[nH]c2cc1S(=O)(=O)N1CCN(c2cccc(Cl)c2)CC1	-21%	1%
CCC1Oc2ccccc2N(CC(=O)NCc2ccccc2)C1=O (stereo not given)	-4%	6%
CCOc1ccc(-c2cc3c(=O)n(CC(=O)NCc4ccc(C)cc4)ccn3n2)cc1	-4%	-4%
CCOC(=O)c1ccc(-c2ccc(/C=C(\C#N)C(=O)Nc3c(C)cccc3Cl)o2)cc1	-13%	2%
CCC(C)NC(=O)c1ccc2c(c1)sc1nc(-c3ccc(OC)cc3)cn12 (stereo not given)	-5%	5%
COc1ccc(CNC(=O)c2cc(=O)c3cc(C)ccc3o2)cc1	8%	-18%[11.5 µM]
Cc1ccc(C)c(NC(=O)Cn2c(SCC(=O)NCc3ccccc3)nc3ccccc32)c1	5%	-18%

Main list, repeating the preview:
SMILES	PMP22 txn	HTT promoter inh
Cc1cc2[nH]c(=O)c(=O)[nH]c2cc1S(=O)(=O)N1CCN(c2cccc(Cl)c2)CC1	-21%	1%
CCC1Oc2ccccc2N(CC(=O)NCc2ccccc2)C1=O (stereo not given)	-4%	6%
CCOc1ccc(-c2cc3c(=O)n(CC(=O)NCc4ccc(C)cc4)ccn3n2)cc1	-4%	-4%
CCOC(=O)c1ccc(-c2ccc(/C=C(\C#N)C(=O)Nc3c(C)cccc3Cl)o2)cc1	-13%	2%
CCC(C)NC(=O)c1ccc2c(c1)sc1nc(-c3ccc(OC)cc3)cn12 (stereo not given)	-5%	5%
COc1ccc(CNC(=O)c2cc(=O)c3cc(C)ccc3o2)cc1	8%	-18%[11.5 µM]
Cc1ccc(C)c(NC(=O)Cn2c(SCC(=O)NCc3ccccc3)nc3ccccc32)c1	5%	-18%
O=C(Nc1cccc(Cl)c1)Nc1ccccc1OCc1cc(=O)n2ccccc2n1	-24%	8%
CCCN1CCN(CCCNC(=O)c2cc3c(s2)-c2ccccc2OC3)CC1	?	-11%
COc1cc(S(=O)(=O)n2ccnc2C(C)C)ccc1Br	-1%	-14%
Nc1[nH]c(=O)ncc1F	.	-9%&-2%
CCOC(=O)c1ccccc1Nc1nc2ccc(C)cc2n2nnnc12	-13%	3%
NC(=O)c1cnccn1	.	-18%&-2%
COc1cc(C=C2CCC/C(=C\c3ccc(O)c(OC)c3)C2=O)ccc1O	.	?
CCOc1ccc(NC(=O)CSc2oc(-c3ccc(C)cc3)nc2S(=O)(=O)c2ccc(C)cc2)cc1	?	-17%
Cc1ccc(NS(=O)(=O)c2ccc3c(c2)[C@H]2C=CC[C@H]2[C@@H](c2ccc(F)cc2)N3)cc1C	-23%	-35%
Cc1cccc(Cn2c(SCc3ccc(C(=O)N4CCC(C)CC4)cc3)nc3ccncc32)c1	?	?
CCc1ccc(C2=C(C)C(N3CCC(C(=O)Nc4cccc(OC)c4)CC3)=NS2(=O)=O)cc1	?	-32%
CCOc1ccc2c(c1)c(=O)c(C(=O)c1ccc3c(c1)OCO3)cn2Cc1ccc(F)cc1	-20%	-13%
COc1ccc(NC(=O)CSc2nc(-c3cccs3)cc(C(F)(F)F)n2)cc1OC	4.2µM*	?
Cc1ccc(NC(=O)c2ccc(CN3CC(=O)N4CCCCC4C3=O)cc2)cc1 (stereo not given)	?	-9%
COc1ccc(CNC(=O)c2ccc3c(c2)nc2n3CCCCC2)cc1	-9%	48%[activator]
Cc1ccc(CNC(=O)CN(C)S(=O)(=O)c2ccc(Br)s2)cc1	-7%	1%
CCOc1cc(CNCCSc2nnnn2-c2ccccc2)ccc1OC	-24%	-29%
O=C(NC1CC(=O)N(c2ccc(F)cc2)C1)c1ccc(S(=O)(=O)N2CCOCC2)cc1 (stereo not given)	-21%	-2%
Cc1nn(CCC(=O)Nc2cccc(C#N)c2)c(C)c1S(=O)(=O)N1CCCCC1	?	?
COc1ccc(-c2nc3scc(CCNS(=O)(=O)c4cccc(C(C)=O)c4)n3n2)cc1	-2%	-15%
Cc1ccc(NC(=O)c2ccc3c(=O)n4nc(Nc5ccccc5C)sc4nc3c2)cc1C	9.5µM*	-2%
Cc1cccc(N2CCN(C(=O)c3ccc4c(c3)N(Cc3cccc(Cl)c3)C(=O)c3ccccc3S4=O)CC2C)c1 (stereo not given)	?	?
Fc1cccc(-c2nnn3c2nc(NCc2ccc4c(c2)OCO4)c2ccccc23)c1	?	-3%
O=C(Nc1ccc(F)cc1)c1ncn(-c2ccccc2)n1	?	36%[activator]
CCCCSCCCNC(=O)c1cn(CC)c2ccc(S(=O)(=O)N3CCOCC3)cc2c1=O	?	-7%
COc1ccc2c(c1)c1c(c(=O)n(-c3cccc(C)c3)c(=O)n1CC(=O)NCCC1=CCCCC1)n2C	4%	-9%
O=C1c2oc3ccc(F)cc3c(=O)c2C(c2cccc([N+](=O)[O-])c2)N1CCCN1CCOCC1 (stereo not given)	-3%	-9%
CCc1ccc(NC(=O)CN(c2ccc(OC)cc2)S(=O)(=O)c2c(C)[nH]c(=O)[nH]c2=O)cc1	2%	0%[11.5 µM]
CCOc1ccc(NC(=O)Cn2c(=O)n(CCCC(=O)NCCc3ccc(Cl)cc3)c(=O)c3ccccc32)cc1	?	-15%
CCOC(=O)C(C)Sc1nnc2ccc3ccccc3n12 (stereo not given)	3%	31%[activator]
Cc1ccc(Cl)cc1NC(=O)CSc1nc2ccccc2c2nc(-c3ccccc3)nn12	17%	-5%
COc1ccc(N2CCN(C(=O)COCc3cc(-c4ccc5c(c4)OCO5)on3)CC2)cc1	-38%	-30%
CCOC(=O)c1c(C)oc2ncnc(N3CCN(c4ccccc4F)CC3)c12	-30%	?
Cc1ccc(CNC(=O)Cn2ncc3c([nH]c4ccc(C)cc43)c2=O)cc1	2%	6%
CC(C)CC(=O)Nc1c(C(=O)N2CCN(c3ccccc3F)CC2)oc2ccccc12	40%	-27%
CCOc1ccc(-c2nc(CSCC(=O)NCc3ccc(C)cc3)c(C)o2)cc1	0%	7.1µM*
CCc1ccc(OCC(=O)Nc2ccc(-c3nc4ncccc4o3)cc2)cc1	-26%	33%[activator]
CCN1CCN(CCCNC(=O)Cn2c(-c3cccs3)cc3ccccc32)CC1	?	-19%

Next section (two carried over from the part before).
SMILES	PMP22 txn	HTT promoter inh
CCc1ccc(OCC(=O)Nc2ccc(-c3nc4ncccc4o3)cc2)cc1	-26%	33%[activator]
CCN1CCN(CCCNC(=O)Cn2c(-c3cccs3)cc3ccccc32)CC1	?	-19%
C#C[C@]1(O)CC[C@H]2[C@@H]3CCc4cc(O)ccc4[C@H]3CC[C@@]21C	.	-6%
Cc1ccc(C(=O)Nc2c(-c3ccccc3)nc3ccccn23)cc1	-8%	-6%
CC(C)c1cc(-c2nc(-c3ccccc3)no2)n[nH]1	?	30%
O=C(Nc1ccc(N2CCC(N3CCCCC3)CC2)c(C(=O)O)c1)c1ccccc1	-5%	-7%
Cc1ccc(Cl)cc1NC(=O)Nc1nnc(N(C)Cc2ccccc2)s1	-20%	-25%
CCOC(=O)N1CCc2c(sc(NCc3ccc(OC)c(Br)c3)c2C(=O)Nc2cc(OC)ccc2OC)C1	-50%	-9%
CC(C(=O)NCc1cccc(Br)c1)n1ncn2cccc2c1=O (stereo not given)	4%	-11%
COc1ccc(NC(=O)CCS(=O)(=O)c2cc3c4c(c2)CCN4C(=O)CC3)c(OC)c1	-15%	-8%
CCOc1ccc(CCNC(=O)Cn2nnc(-c3ccccc3Cl)n2)cc1OCC	16%	-7%
COc1ccc(CCNC(=O)c2ccc(CS(=O)(=O)c3ccc(C)cc3)o2)cc1OC	?	?
CCOC(=O)c1c(NC(=O)/C=C/c2ccccc2)sc2c1CCCC2	4%	-4%
Cc1ccc(CNc2ccc(-c3nc(-c4cccnc4)no3)cc2[N+](=O)[O-])cc1	-14%	-3%
CC(=O)c1ccc(NC(=O)Nc2nnc(N3CCCC(C)C3)s2)cc1 (stereo not given)	-7%	-3%
O=C(CSCc1nc2cccnc2n1C1CCCCC1)NCc1cccc(Cl)c1	?	-26%
CCOc1cc(C(=O)NCCc2csc(-c3ccc(C)cc3)n2)cc(OCC)c1OCC	-4%	-14%
O=C(c1ccc(CSc2nc3ccncc3n2Cc2ccccc2F)cc1)N1CCCCCC1	-46%	-30%
CCOC(=O)c1cc(S(=O)(=O)NCc2ccc(OC)cc2)[nH]n1	23%	-25%
Cc1ccc(CCNC(=O)C2CCCN(Cc3nc(-c4cccc(Cl)c4)oc3C)C2)cc1 (stereo not given)	?	-23%
CCn1c(CN2CCN(C)CC2)nc2cc(NC(=O)c3cc(OC)c(OC)c(OC)c3)ccc21	-5%	13%
CCCCOC(=O)c1ccc(NC(=O)/C(C#N)=C/c2ccc(C)o2)cc1	?	-38%[11.5 µM]
COc1cc(C2C(C(=O)Nc3ccccc3C)=C(C)Nc3nc(SCc4cc(C)ccc4C)nn32)ccc1O (stereo not given)	?	?
CCOc1ccccc1NC(=O)Cn1c(=O)n(Cc2ccco2)c(=O)c2cccnc21	-3%	-11%
COc1ccc(NC(=O)c2noc3c2CCCC3)cc1Cl	-17%	65%[activator]
COc1ccc(N2CC(NC(=O)COc3ccccc3F)CC2=O)cc1OC (stereo not given)	-2%	-6%
Cc1cccc(NC(=O)CSc2nc3c(c(=O)[nH]2)CN(Cc2ccc4c(c2)OCO4)CC3)c1C	5%	-19%
CCN(CC)C(=O)CSc1nnc2[nH]c(=O)cc(C)n12	1%	-7%
O=C(C1CCCN(S(=O)(=O)c2cccc3nsnc23)C1)N1CCN(c2cccc(Cl)c2)CC1 (stereo not given)	?	?
COc1ccc(-c2onc(C)c2C)cc1S(=O)(=O)Nc1cc(Cl)ccc1C	?	-18%
COc1cccc(C(=O)NC2=NC(c3ccccc3F)CC(=O)N2)c1 (stereo not given)	?	-14%
Cc1ccc(NC(=O)CN2C(=O)COc3ccc(S(=O)(=O)NC4CCCC4)cc32)cc1Cl	-6%	-25%

In the list so far, two contain a nitro group on carbon.
SMILES	PMP22 txn	HTT promoter inh
O=C1c2oc3ccc(F)cc3c(=O)c2C(c2cccc([N+](=O)[O-])c2)N1CCCN1CCOCC1 (stereo not given)	-3%	-9%
Cc1ccc(CNc2ccc(-c3nc(-c4cccnc4)no3)cc2[N+](=O)[O-])cc1	-14%	-3%

The list continues:
SMILES	PMP22 txn	HTT promoter inh
C#CC(C)(CC)NC(=O)c1cc2c(n(-c3ccc(Cl)cc3)c1=O)CC(C)(C)CC2=O (stereo not given)	-1%	-7%
COc1ccc(OCc2ccc(-c3nc(C#N)c(NCc4cccnc4)o3)o2)cc1	?	?
CCOC(=O)C1CCCN(c2ncnc3c2cnn3-c2ccc(C)c(Cl)c2)C1 (stereo not given)	12%	-8%
O=C(Nc1ccc(F)cc1)N1CCN(c2ccc3nnc(-c4ccc(F)cc4)n3n2)CC1	?	-15%
CCN1CCc2c(sc(-n3cccc3)c2C(C)NC(=O)Nc2cc(Cl)c(OC)cc2OC)C1 (stereo not given)	?	-16%
COc1cc(-c2nc3nc(C)cc(C)n3c2Nc2ccc(Cl)cc2)ccc1O	-1%	-22%
COc1ccc(-c2cc(C(F)(F)F)n3nc(C(=O)Nc4cccc(C(F)(F)F)c4)c(Br)c3n2)cc1	-13%	-2%
COc1ccc(NC(=O)CSC2=Nc3ccccc3C3=NC(CCC(=O)NCc4cccs4)C(=O)N23)cc1 (stereo not given)	-2%	-28%
CC(=O)[C@H]1CC[C@H]2[C@@H]3CC=C4C[C@@H](O)CC[C@]4(C)[C@H]3CC[C@]12C	.	-19%&12%

Bioassay records (PubChem BioAssay)
